Screening results deposited in PubChem BioAssay by National Center for Advancing Translational Sciences (NCATS).
VDR inhibitor: vitamin D3 receptor (human) inhibition; 400,000 tested, 0.93% active; VDR-SRC2-3 peptide fluorescence polarization, 2 h; P11473; Potency, µM, inactives show max response, negative = inhibition, actives largely listed as inhibitors; active = well fitted inhibition curve with a large enough effect; inconclusive = small, poorly fitted or top-dose-only effect, or another doubt; inactive = no such curve, though single readings can be large or run the other way; note: series mostly up to about 120 µM
Target sequence (P11473 whole entry, looked up): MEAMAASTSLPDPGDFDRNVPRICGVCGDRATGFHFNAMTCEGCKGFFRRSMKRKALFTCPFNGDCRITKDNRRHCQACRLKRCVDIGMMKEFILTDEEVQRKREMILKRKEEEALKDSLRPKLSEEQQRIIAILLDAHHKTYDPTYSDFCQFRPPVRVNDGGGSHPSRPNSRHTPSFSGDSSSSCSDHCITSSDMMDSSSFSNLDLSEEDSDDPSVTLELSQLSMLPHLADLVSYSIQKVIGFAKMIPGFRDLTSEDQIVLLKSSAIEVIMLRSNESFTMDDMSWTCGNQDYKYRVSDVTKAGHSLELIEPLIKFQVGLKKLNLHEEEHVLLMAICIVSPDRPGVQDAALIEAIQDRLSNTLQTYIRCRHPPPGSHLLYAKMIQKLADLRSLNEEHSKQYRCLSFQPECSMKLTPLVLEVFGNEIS
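After 23 nl compound addition and a short centrifugation, plates sat for 2 hours at ambient temperature; polarization of fluorescence then indicated loss of VDR binding to peptide SRC2-3.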
The depositor's hits bear a star; ? = inconclusive; & = joins results of further samples; [ ] = remark or other dose. % is set by controls: 0 for no effect and ±100 for the full control effect; potency is the fitted concentration of half-maximal effect. Only part of the results is shown (hit frequency here may not be typical).

#	VDR inhibitor	mol
1	-14%	CCNc1nc(Cl)nc(NNC(=O)C(C)Oc2ccccc2)n1 (stereo unspecified)
2	-7%	CCc1c(-c2ccccc2)nc2ccccc2c1C(=O)NC(C)c1ccccc1 (stereo unspecified)
3	10%	CC(=O)Nc1ccc(NC(=O)Cn2c(=O)ccc3cc(S(=O)(=O)N4CCC(C)CC4)ccc32)cc1
4	-18%	COc1ccc(OCC(=O)Nc2ccc(S(=O)(=O)Nc3nc(C)cc(C)n3)cc2)cc1
5	-12%	O=C(OCc1csc(Nc2ccccc2)n1)c1ccc(Cl)cc1
6	?	O=C(Nc1ccccc1)c1ccc(COc2ccccc2)cc1
7	-1%	COc1ccc(C(C)=O)cc1CSCCC#N
8	-10%	CN(c1ccc(C(=O)N2CCOCC2)cc1)S(=O)(=O)c1cccs1
9	15%	Cn1c(SCC(=O)Nc2ccc3c(c2)OCCO3)nnc1C1CC1
10	-7%	COC(=O)COc1ccc(S(=O)(=O)Nc2ccc3c(c2)OCCO3)cc1C
11	-6%	C=CCN1C(=O)SC(Cc2cccc(OC)c2O)C1=O (stereo unspecified)
12	34%[activator]	CC(C)CCNC(=O)c1sc2ccc(S(=O)(=O)N3CCCCC3)cc2c1N
13	7%	COc1ccc(-c2ccnc3c(Br)c(C)nn23)cc1
14	6%	Cc1ccc(N(CC(=O)Nc2ccccc2-c2ccccc2)S(=O)(=O)c2ccccc2)cc1
15	-4%	O=C1C(c2cc(=O)c3ccccc3[nH]2)=C(O)c2ccccc21
16	3%	NC(=O)[C@H]1CC2(CC(c3cccc(NC(=O)CC(c4ccccc4)c4ccccc4)c3)=NO2)CN1C(=O)C(c1ccccc1)c1ccccc1 (stereo partly specified)
17	15%	N#C/C=C/N1CCN(C(=O)c2ccco2)CC1
18	6%	Cc1ccc2c(CN3CCN(CCO)CC3)cc(=O)oc2c1
19	-11%	Nc1ncnc2c1ncn2C1O[C@H](CO)[C@@H](O)[C@@H]1O (stereo partly specified)
20	8%	NS(=O)(=O)c1cccc(NC(=O)COC(=O)CCN2C(=O)c3ccccc3C2=O)c1
21	-3%	S=C(c1ccc[nH]1)N1CCOCC1
22	?	C[C@H]1C(c2ccccc2)=NN(c2ccccc2)[C@@H]1CO
23	?	CNC(=O)c1c(NC(=O)c2ccc(S(=O)(=O)N3CCCc4ccccc43)cc2)sc2c1CCN(C)C2
24	3%	CCCCn1c(=NC(=O)c2cccnc2)c(C#N)cc2c(=O)n3cccc(C)c3nc21
25	-2%	CC(C)(C)NC(=O)COC(=O)c1ccc(Cl)c(S(N)(=O)=O)c1
26	?	COc1ccc(C2/C=C\CN(C(=O)CC(C)(C)C)C(C)C(=O)N2Cc2ccc(F)cc2)cc1 (stereo unspecified)
27	3%	Cc1csc(NC(=O)CSc2nncn2C)n1
28	7%	c1ccc(-c2nc(NC3CC3)nc(-n3ccnc3)n2)cc1
29	-23%	CC1Cc2ccccc2N1C(=O)CN1CCC(n2nnc3cc(C(F)(F)F)ccc32)CC1 (stereo unspecified)
30	8%	CCOC(=O)c1c(NC(=O)CCNCc2ccco2)sc2c1CCC2
31	3%	COC(=O)C(C)c1ccc(C(=O)c2cccs2)cc1 (stereo unspecified)
32	-7%	CC(C)C(NC(=O)CN1C(=O)c2ccccc2S1(=O)=O)C(C)C
33	-3%	CCOC(=O)C1=C(C)NC(C)=C(C(=O)OCC)C1C(=O)OCC(=O)NCc1ccccc1OC
34	-4%	O=C(CCCSc1ccc(Cl)cc1)Nc1ccccc1O
35	3%	NC(=S)Cc1ccc(Cl)cc1Cl
36	-6%	C=CCN(C(=O)c1csnn1)C(C(=O)NC1CCCC1)c1ccc(F)cc1 (stereo unspecified)
37	-19%	Oc1ccccc1/C=N/Nc1ccccc1
38	19%	Cc1ccc(-n2nc(C(=O)NC(C)C)c(=O)n(C)c2=O)cc1
39	-16%	Cc1cc(C(=O)NNC(=O)c2ccc(NC(=O)CC#N)cc2)c(C)o1
40	4%	CCc1ccc2oc(C(=O)NCc3ccc(S(N)(=O)=O)cc3)c(C)c2c1
41	9%	CCC(C)NC(=O)c1ccccc1NC(=O)c1ccccc1N(C)S(C)(=O)=O (stereo unspecified)
42	0%	CSc1ncccc1C(=O)N1CCN(S(=O)(=O)c2ccccc2)CC1
43	1%	Cc1ccc(S(=O)(=O)N2CCCCC2)cc1NC(=O)c1cccnc1
44	-11%	COc1ccc(-c2cc(C(=O)N/N=C(\C)c3cccnc3)c3ccccc3n2)cc1
45	-16%	CCC(C)c1ccc(OCc2ccc(C(=O)O)o2)cc1 (stereo unspecified)
46	-3%	COCc1cc(C)nc(SCC(=O)Nc2ccc(N3CCOCC3)cc2)c1C#N
47	-21%	Cc1cc(C)cc(NC(=S)NCc2ccc(S(N)(=O)=O)cc2)c1
48	10%	C=CCNC(=O)c1ccc(-c2nc(-c3ccccc3)cs2)cc1
49	-21%	Cn1c(=O)c2c(nc(SCCN3CCCCC3)n2Cc2ccc(Cl)cc2)n(C)c1=O
50	3%	Cn1nnc2c(N3CCN(c4ccccc4F)CC3)ncnc21

Next part:
#	VDR inhibitor	mol
51	0%	Nc1nc(SCc2ccc(Cl)cc2Cl)c2ncn(C3OC(CO)C(O)C3O)c2n1 (stereo unspecified)
52	-12%	Cc1nc2sc(C(c3ccc(Cl)cc3)N3CCN(C(=O)c4ccco4)CC3)c(O)n2n1 (stereo unspecified)
53	10%	CCOC(=O)Cc1c(C)nc2c(-c3ccc(Cl)cc3)c(C(F)(F)F)nn2c1C
54	0%	COc1ccc(S(=O)(=O)Nc2cccc3c2O[C@H](CN(C)C(=O)Nc2ccccc2)[C@@H](C)CN([C@H](C)CO)C3=O)cc1
55	2%	CC(C)(C)c1ccc(C(=O)OC/C(O)=C(\C#N)c2nc3ccccc3s2)cc1
56	6%	Cc1ccc(Cl)cc1NC(=O)Cc1ccc(-n2c(C)nc3cccnc32)cc1
57	-10%	Cc1coc2cc3oc(=O)c(CCC(=O)N4C[C@H]5C[C@@H](C4)c4cccc(=O)n4C5)c(C)c3cc12
58	-20%	COc1ccc(OC)c(C=NNC(=O)c2ccc(NS(=O)(=O)c3cccs3)cc2)c1
59	-15%	CC(NC(=O)c1cccc(S(=O)(=O)N2CCCCCC2)c1)c1ccccc1 (stereo unspecified)
60	-12%	O=C(Cc1ccccc1)Nc1ccnn1C1CCN(Cc2ccc(CO)o2)CC1
61	13%	Cc1c(NS(=O)(=O)c2cccc(C(=O)NC(C)c3ccccc3)c2)c(=O)n(-c2ccccc2)n1C (stereo unspecified)
62	2%	Cc1cc(C)c(NC(=O)Cn2c(=O)n(CC(=O)NCc3ccccc3Cl)c(=O)c3sccc32)c(C)c1
63	-6%	O=C(O)CN(Cc1ccco1)S(=O)(=O)c1ccc(F)cc1
64	-5%	CC(=O)Nc1cccc(NC(=O)c2cc([N+](=O)[O-])ccc2N2CCCCC2)c1
65	5%	Cc1cccc(OCC(=O)NCCCNC(=O)c2ccco2)c1
66	1%	COn1c(SC(C)C)nc2ccccc2c1=O
67	-14%	CCOc1cc(C2c3c(-c4ccccc4)n[nH]c3C(=O)N2c2ccc(C(=O)O)cc2)ccc1O (stereo unspecified)
68	2%	CCc1ccc(NC(=O)CCCn2nc(C)c3c(C)n(-c4ccccc4)nc3c2=O)cc1
69	-21%	CC(C)Sc1nc(C(F)(F)F)cc(=O)n1-c1ccccc1
70	15%	O=C(OCc1ccc(Br)cc1)c1ccncc1
71	2%	CCCn1ncc(CN2CCC(C(=O)Nc3cccc(-c4cccc(F)c4)c3)CC2)c1C
72	-6%	CCCNC1=C(N(C(C)=O)c2cccc(F)c2)C(=O)c2ccccc2C1=O
73	-1%	COc1ccc(C(=O)N2CCN(Cc3ccccc3C)CC2)cc1OC
74	-2%	c1ccc(OCCOc2ccccc2-c2nnco2)cc1
75	29%	CCOC(=O)N/N=C\c1ccc([N+](=O)[O-])o1
76	5%	CCc1ccccc1S(=O)(=O)Cc1ccc(C(=O)NC2CCCC2)o1
77	9%	CC(c1ccccc1)n1c(SCC(=O)N2CC(=O)Nc3ccccc32)nc2ccccc2c1=O (stereo unspecified)
78	-8%	O=C(NNC(=O)c1c(O)c2ccccc2[nH]c1=O)c1ccccc1Br
79	-2%	O=C(NCc1ccco1)C1CCCN(S(=O)(=O)c2ccc(Br)cc2)C1 (stereo unspecified)
80	11%	CCCc1ncc(C(O)c2cccc(OC)c2OC)n1C (stereo unspecified)
81	-24%	CCOC(=O)c1cc2c(=O)c3ccccc3oc2nc1C
82	-14%	CN(Cc1ccccc1)S(=O)(=O)c1ccc(Cl)c(C(=O)NCc2cccnc2)c1
83	-12%	Cc1ccccc1-n1ncc2c1CC(C)(C)CC2NC(=O)CCn1cncn1 (stereo unspecified)
84	6%	CC(=O)NC(Cc1ccccc1)C(=O)OCC(=O)c1ccc(Br)cc1 (stereo unspecified)
85	-15%	CCOC(CNC(=O)c1cccn2c(=O)c3c(C)c(C)sc3nc12)OCC
86	?	COc1ccc(NC(=O)c2cc3ccccc3o2)cc1OC
87	-16%	Clc1ccc(Sc2cnc3ccccc3n2)cc1
88	2%	O=C(c1cccc(F)c1)N1CCC2(CCCN(c3ccncc3)C2)CC1
89	?	CC(Oc1coc(CN2CCN(C(=O)c3ccco3)CC2)cc1=O)c1ccccc1 (stereo unspecified)
90	-3%	CCOc1cc(/C=C2/SC(=S)NC2=O)ccc1OC(=O)c1ccco1
91	-15%	COC(=O)c1ccccc1S(=O)(=O)N1CCC(C(=O)OC(C)C(=O)N(C)Cc2ccccc2)CC1 (stereo unspecified)
92	1%	CC(C)(C)c1ccc(NC(=O)N2CCCN(c3ccc([N+](=O)[O-])cn3)CC2)cc1
93	11%	COc1ccc(-c2nc3c(c(=O)n(C)c(=O)n3C)n2CC2CC(c3ccccc3)=NO2)cc1OC (stereo unspecified)
94	?	COc1ccc(NCC(=O)N/N=C/c2cc([N+](=O)[O-])ccc2N2CCCC2)cc1
95	-10%	Cn1c(=O)c2c(ncn2CC(=O)OCC(=O)Nc2ccc(Cl)cc2)n(C)c1=O
96	2%	CC(C)COC(=O)c1ccccc1N1C(=O)C2C3CCC(C3)C2C1=O (stereo unspecified)
97	-12%	Nc1nonc1-n1nnc(C(=O)N/N=C/C2CC=CCC2)c1CSc1ccccc1 (stereo unspecified)
98	5%	Cc1nc2ccccc2nc1CSc1nnc(N)s1
99	-1%	COc1cc2cc(CCCOC(=O)c3ccc(F)cc3)oc(=O)c2cc1OC
100	-5%	Cc1c(C(=O)N/N=C/c2ccccc2)[nH]c2ccc(Cl)cc12

The listing continues.
#	VDR inhibitor	mol
101	?	COC(=O)c1ccc(CSc2cc(C)c3ccccc3n2)o1
102	-13%	CCOc1ccc(CCNC(=O)c2cc3sccc3n2C)cc1OCC
103	10%	CCc1ccccc1NC(=O)CN(Cc1ccccc1)S(=O)(=O)c1ccc2nc(C)sc2c1
104	3%	O=C(O)C1C2CCC(O2)C1C(=O)Nc1ccc(F)cc1 (stereo unspecified)
105	-18%&5%	CNCCC=C1c2ccccc2C=Cc2ccccc21
106	2%	Cc1ccc(NC(=O)N2CCC3(CC2)Oc2ccccc2C(=O)N3Cc2ccc(F)cc2)cc1
107	-2%	COc1ccc(C(=O)N2CCC[C@@]3(CCN(C(=O)Nc4ccccc4)C3)C2)cc1
108	13%	Cc1ccc(CNn2cnnc2SCC(=O)NC(C)(C)C)cc1
109	-7%	CC(=O)Oc1ccc2c(C)cc(=O)oc2c1C(=O)c1ccccc1
110	-11%	NC(=S)n1[nH]c(-c2ccc([N+](=O)[O-])cc2)c(N=Nc2ccc(Cl)cc2)c1=O
111	-4%	O=C(O/N=C1\CCS(=O)(=O)c2sccc21)c1ccc(F)cc1
112	-7%	Cn1c(=O)n(C)c2cc(C(N)=O)ccc21
113	-19%	O=S(=O)(Nc1ccc(O)c(Sc2nc3ccccc3s2)c1)c1ccc(F)cc1
114	-8%	CC(C)N1C(=O)CCC1C(=O)NCCc1ccccc1 (stereo unspecified)
115	-11%	CCOC(=O)c1cc2c(=O)n3ccccc3nc2n(Cc2ccco2)c1=NC(=O)c1cccc(Br)c1
116	-7%	COc1cc(NC(=O)CCN2CCN(c3ccccc3F)CC2)cc(OC)c1
117	-15%	O=C(/C=C/c1ccc(Cl)cc1)NCCc1ccccc1
118	-7%	CCOc1ccc(NC(=O)CCC(=O)NNC(=O)COc2ccccc2C)cc1
119	17%	CCOC(=O)c1c(NC(=O)CSc2cn(CCNC(=O)c3ccccc3F)c3ccccc23)sc2c1CCC2
120	11%	Cn1c(=O)cc(OCC(=O)NCCc2ccc(Cl)cc2)c2ccccc21
121	0%	CSc1nc2ccc(NC(=O)C3CCCO3)cc2s1 (stereo unspecified)
